Screening results deposited in PubChem BioAssay by several laboratories.
Beta apoptosis: inhibitors of cytokine-induced beta cell apoptosis, primary screen, luminescence | protection from apoptosis, % (test concentration not listed) | AID 435005, 2010 | 300,000 compounds, 0.8% hits | INS-1E cytokine-induced death, ATP luminescence, 48 h; percent of positive-control rescue, neutral wells zero;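 active means all replicates at 75% or more, or half of them and the mean; inconclusive means half reach 75% but not the mean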;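 further: 0% = cytokine-treated negative control wells and 100% = positive control rescue; higher means more ATP so stronger rescue from cytokine killing; wells of about 40 µL received 100 nL stock; the first replicate is given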
T cruzi inh: inhibitors of intracellular T. cruzi growth, primary screen, luminescence, NIH3T3 host cells; T. cruzi beta-gal in NIH3T3, 90 h; inhibition, % (no concentration beside the values); 300,000 compounds, 1.4% hits; AID 1885, 2009;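 active means mean inhibition across valid replicates above about 55%, limit read from the data; inconclusive means mean below that limit but half or more replicates reach it; inactive means mean below it, under half of replicates reach it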;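 further: signal also drops with host cell toxicity which is not excluded here; 0% = plate median of DMSO wells and 100% = zero luminescence signal; higher percent means less beta-gal luminescence so fewer parasites; stock transfer was 50 nL into about 50 µL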
A1 inh: caspase 3/7 activation in MEF A1-2A-BIM cells, primary screen, A1 inhibitor project, cell-based, luminescence, HTS | Caspase-Glo 3/7 luminescence, 3 h; percent of clofoctol response, vehicle zero | caspase activation, % (no concentration beside the values) | 330,000 compounds, 0.066% hits;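 active means over half of replicate activation scores above 10%, or exactly half above 10 with the replicate mean above 10; inconclusive means replicate mean below 10 yet half the replicates above 10; inactive means over half of replicates below 10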;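 further: wells of about 30 µL received 50 nL stock; many hits fall short of the cut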
Calb FLC: C. albicans growth inhibition with fluconazole, primary screen, CaCi-2 strain, Alamar Blue fluorescence. C. albicans CaCi-2 (fluconazole-resistant clinical isolate) + fluconazole, 48 h. growth inhibition, % (test concentration not listed). 300,000 compounds, 0.57% hits;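 active means most replicates above 75%; inconclusive means exactly half above 75%; inactive means most below 75%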;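 further: all wells also contain fluconazole at 8 µg/ml as a sub-toxic cotreatment; 0% = median of DMSO wells and 100% = median of geldanamycin control wells; wells of about 8 µL received 7.5 nL stock; the first replicate is given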
Ecoli rRNA inh: reduced GFP signal of wild-type E. coli, primary screen, bacterial rRNA inhibitor project, GFP/RFP fluorescence, OD600, single point; E. coli WT GFP vs humanized-ribosome RFP mutants, 24 h; stronger effect = lower value; DMSO median 0, no signal -100; 350,000 compounds, 1.6% hits; GFP signal change (wild-type ribosome), % (test concentration not listed); AID 720706, 2013;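 active means significant combined selectivity score with lowered wild-type GFP, culture density cut under 30%, mutant RFP and density less affected; inactive means any of these conditions unmet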; further: one replicate is shown; some compounds called inactive have numbers as strong as hits
Vif TR-FRET: inhibitors of Vif binding to APOBEC3G peptide, primary screen, biochemical, TR-FRET, GST-Vif 1-94, biotin-A3G peptide, dose response retest (AID 1117319); Virion infectivity factor (Human immunodeficiency virus type 1 group M subtype B (isolate …; TR-FRET GST-Vif / biotin-A3G peptide binding; higher % means a stronger effect; test concentration not given here; strong numbers were not always called active; inhibition, %; hits with a dose series show IC50 in µM; 260,000 compounds, 0.57% hits;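 active means above the screen mean plus three standard deviations and confirmed in dose response; inconclusive means results disagree or hit not tested in dose response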;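 further: Vif residues 1-94 fused to GST binding biotinylated APOBEC3G peptide 110-148; 0% = full assay without inhibitor and 100% = GST in place of GST-Vif; retest series ran down from 100 µM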
AF4-AF9 inh: inhibitors of AF4 peptide binding to AF9, primary screen, biochemical, AlphaScreen, biotin-AF4 peptide, FLAG-AF9, single point; 350,000 compounds, 0.47% hits; inhibition, % at 10 µM; Protein AF-9 (Homo sapiens), P42568;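 active means every replicate reaching a set inhibition limit, whatever the replicate mean, cut at about 25% in these data; inconclusive means mean inhibition reaches that limit but some replicates miss it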;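 further: 0% = plate neutral control median and 100% = total signal loss; the record names both 10 and 1 µM as test concentration; the first replicate is given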
Target sequence (P42568 whole entry, looked up): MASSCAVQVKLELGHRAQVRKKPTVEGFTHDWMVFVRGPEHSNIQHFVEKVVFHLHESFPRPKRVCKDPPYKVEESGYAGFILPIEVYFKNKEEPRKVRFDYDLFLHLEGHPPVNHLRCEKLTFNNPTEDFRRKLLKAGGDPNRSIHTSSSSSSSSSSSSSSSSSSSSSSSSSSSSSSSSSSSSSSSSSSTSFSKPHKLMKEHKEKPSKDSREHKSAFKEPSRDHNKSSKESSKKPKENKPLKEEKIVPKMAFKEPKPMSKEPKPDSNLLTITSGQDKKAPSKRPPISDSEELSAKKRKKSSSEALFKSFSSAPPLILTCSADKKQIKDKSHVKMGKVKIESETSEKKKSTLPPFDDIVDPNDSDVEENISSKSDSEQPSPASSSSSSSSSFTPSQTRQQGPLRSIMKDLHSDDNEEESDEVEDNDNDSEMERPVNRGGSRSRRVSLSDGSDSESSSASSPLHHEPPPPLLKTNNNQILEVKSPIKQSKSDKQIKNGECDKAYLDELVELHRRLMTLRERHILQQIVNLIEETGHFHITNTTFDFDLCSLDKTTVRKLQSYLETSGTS
RanGTP-Impb inh: inhibitors of RanGTP-importin-beta interaction, primary screen, biochemical, FRET, CFP-Ran, YFP-importin-beta, homogeneous | AID 2216, 2009 | 300,000 compounds, 1.1% hits | cell-free CFP-Ran/YFP-importin-beta FRET ratio | Ran GTPase (GTP-bound) - importin-beta complex | inhibition, % (concentration not given with the values);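 active means most replicates above 15%; inconclusive means exactly half above 15%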;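 further: 0% = DMSO wells and 100% = Ran loaded with GDP instead of GTP; wells of about 40 µL received 100 nL stock; the first replicate is given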
Ecoli rRNA inh OD600: further read-out of Ecoli rRNA inh, marked with its call; OD600 change, %; measured here: OD600 growth;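 optical density of the mix in the first replicate; 0 = DMSO median and -100 = no signal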
Ecoli rRNA inh RFP: second read-out of Ecoli rRNA inh, no call of its own (marks repeat the call); RFP signal change, %; measured here: RFP humanized mutant strains;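 first replicate; 0 = DMSO median and -100 = no signal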
Starred values were filed as active, the others as inactive; ? = inconclusive; / = not tested or not shown. An excerpt, so the mix of outcomes need not match the whole.

SMILES	Beta apoptosis	T cruzi inh	A1 inh	Calb FLC	Ecoli rRNA inh	Ecoli rRNA inh OD600	Ecoli rRNA inh RFP	Vif TR-FRET	AF4-AF9 inh	RanGTP-Impb inh
Cc1ccc(Cn2cccc(NC(=O)CCC3CCCC3)c2=O)cc1	0	3	-0.6	-1	-28	-39	-8.2	-4%	-3.0	-1.1
O=C(OCc1cncs1)c1ccccc1Cl	-5	-17	-0.8	1	-4	-3	-4.2	-4%	-0.2	-3.0
Cc1ccc(S(=O)(=O)N2CCCC2CNC(=O)C(=O)NC2CCCC2)cc1 (centres undefined)	6	-2	0.1	0	-3	0	0.8	12%	-5.1	-1.7
COC(=O)CCSc1nccn1Cc1ccccc1	-3	-16	0.9	6	10	3	2.8	23%	/	2.5
N#CCc1c(C#N)c(N)nc(N2CCCC2)c1C#N	6	8	-0.7	-7	-18	-18	3.8	/	-20	1.3
COc1ccc(-c2noc(-c3ccccc3Cl)n2)cc1OC	0	15	-4.2	-8	7	1	-1.7	12%	6.6	6.0
COC(=O)c1ccc(NC(=O)c2ccc(NC(=O)C3CCCO3)cc2)cc1 (centres undefined)	2	-1	0.8	-3	16	11	-5.1	8%	-4.7	-1.1
O=C(O)CC1(CC(=O)Nc2cccc(C(=O)O)c2)CCCC1	-4	8	-1.0	3	9	6	1.2	-4%	-3.1	5.8
CCCn1c(=O)c2c(C(F)(F)F)cc(-c3ccco3)nc2n(CCC)c1=O	6	0	0.6	4	/	/	/	5%	/	-1.4
O=C(Nc1ccc2c(c1)OCCO2)c1cnc2ccccn2c1=O	/	-2	-7.1	1	/	/	/	/	/	-0.8
CCN(CC)S(=O)(=O)c1cccc(-n2c(O)c(C=Nc3ccccc3C(=O)O)c3ccccc3c2=O)c1	-16	72*	-0.5	-3	9	10	1.0	/	-20	4.0
Cc1sc(N)c(C#N)c1C	0	-3	0.5	-4	12	8	3.3	/	-6.9	-12
COCCn1c(N)c(Sc2ccccc2)c(=O)[nH]c1=O	-3	2	-0.3	1	8	15	1.0	3%	0.7	4.6
O=C(CCNC(=O)c1ccccc1Cl)Nc1cccc(S(=O)(=O)N2CCOCC2)c1	2	/	0.4	/	5	-3	1.5	/	1.0	/
O=C1CC(c2ccccc2)n2nc(NS(=O)(=O)c3ccccc3)nc2N1 (centres undefined)	-2	/	-0.3	0	/	/	/	-2%	/	/
COc1ccc(C(=O)COC(=O)COc2cccc3c2OC(C)(C)C3)c(OC)c1	-13	-6	0.0	1	1	2	1.4	-5%	-1.0	-0.6
CC(=O)Nc1ccc(C(=O)Nc2nc(-c3cc(C)n(Cc4ccccc4)c3C)cs2)cc1	-15	-7	-0.2	-4	4	8	1.1	4%	-16	6.9
COc1cccc(Cn2nnc3c(=O)[nH]c(C4CCCN(C(=O)c5ccccc5Cl)C4)nc32)c1 (centres undefined)	-2	2	1.2	3	/	/	/	21%	/	0.7
COc1ccc(N2CCN(C(=O)c3ccc(Cn4nc(C)c([N+](=O)[O-])c4C)o3)CC2)cc1	/	17	/	-7	-6	-12	5.0	/	5.3	1.7
Cc1cccc(N2CC(C)Cn3c2nc2c3c(=O)n(CC(=O)OCc3ccccc3)c(=O)n2C)c1 (centres undefined)	18	30	-0.8	-6	/	/	/	17%	/	1.7
Cc1cccc(N(Cc2ccccc2)C(=O)CCl)c1	/	72*	/	10	-6	-3	1.8	?	-2.3	5.7
Cc1nc2ccccc2n1C(=O)c1ccc(Cl)cc1[N+](=O)[O-]	/	-15	1.1	-3	/	/	/	-7%	/	-4.8
Cc1cc(S(=O)(=O)N2CCOCC2)ccc1NC(=O)c1ccc(F)cc1	/	-10	2.1	-1	-4	4	-3.7	1%	4.2	-0.7
CCS(=O)(=O)c1ccc2oc(SCC(=O)NCCC3=CCCCC3)nc2c1	-4	13	-0.2	4	/	/	/	0%	/	2.6
CCOC(=O)C1CCN(C(=O)c2cc3ccc(OC)cc3[nH]2)CC1	-1	0	-1.5	1	0	-4	0.9	3%	0.0	1.6
CN1CCc2ccccc2CC1=O	-10	-7	-0.1	2	/	/	/	3%	/	-0.6
N=c1nc(SCCC(=O)O)ss1	-4	-3	-1.3	2	/	/	/	4%	/	?
CCCCCOc1ccc(/C(C)=N/NC2=NCCN2)cc1	4	44	0.7	12	-19	-17	2.6	/	4.8	-2.0
CCOC(=O)C(N)CSC1CC(=O)N(CCc2ccccc2)C1=O (centres undefined)	-8	8	-0.5	7	11	8	-0.1	/	2.2	2.0
COc1ccc(-c2ocnc2C(=O)Nc2ccc3c(c2)CCC3)cc1	2	0	-0.1	-1	5	4	-0.2	-2%	-0.2	-2.9
Cc1ccc(NC(=O)COC(=O)c2ccccc2Cl)cc1S(=O)(=O)N(C)C	-8	4	0.2	-29	-34*	-25*	-3.9*	0%	-3.6	-2.8
Cc1ccc2cc(CN(CC(C)C)S(=O)(=O)c3cccc4nonc34)c(=O)[nH]c2c1	2	14	-0.6	3	14	5	1.0	-7%	0.5	1.8
Cc1ccccc1OCC(=O)NNC(=O)Nc1ccccc1	0	-10	-0.1	4	3	1	-1.6	-3%	-8.2	-0.5
Cc1occc1C(=O)N/N=C/c1sc(N2CCOCC2)nc1-c1ccccc1	1	20	0.3	-3	3	-2	-0.8	-18%	1.0	3.8
CCCNC(=O)c1csc2c1CCCCC2	-5	5	0.1	1	/	/	/	-9%	/	0.6
CSCCC(NC(=O)C1CCC(C)CC1)C(=O)NCCN1CCOCC1 (centres undefined)	0	-10	0.5	11	/	/	/	19%	/	3.4
CCCOc1ccc(N2C(=O)CC(SC(=NC)Nc3ccc(F)cc3)C2=O)cc1 (centres undefined)	0	21	0.4	-7	/	/	/	-9%	/	0.5
C/C(=N\NC(=O)c1c(Br)c(C)nn1C)c1cccc(NC(=O)C2CCC2)c1	0	21	-0.7	6	/	/	/	-2%	/	0.3
O=S(=O)(Nc1ccc(N2CCCCC2)cc1)c1cccc2cccnc12	15	11	-0.7	-2	/	/	/	0%	/	4.4
O=C(N/N=C/c1cccc([N+](=O)[O-])c1)c1ccc2nc[nH]c2c1	4	-5	0.1	3	/	/	/	6%	/	-0.2

Exported with bars between the fields: entries from further up.
SMILES | Beta apoptosis | T cruzi inh | A1 inh | Calb FLC | Ecoli rRNA inh | Ecoli rRNA inh OD600 | Ecoli rRNA inh RFP | Vif TR-FRET | AF4-AF9 inh | RanGTP-Impb inh
COCCn1c(N)c(Sc2ccccc2)c(=O)[nH]c1=O | -3 | 2 | -0.3 | 1 | 8 | 15 | 1.0 | 3% | 0.7 | 4.6
O=C(CCNC(=O)c1ccccc1Cl)Nc1cccc(S(=O)(=O)N2CCOCC2)c1 | 2 | / | 0.4 | / | 5 | -3 | 1.5 | / | 1.0 | /
O=C1CC(c2ccccc2)n2nc(NS(=O)(=O)c3ccccc3)nc2N1 (centres undefined) | -2 | / | -0.3 | 0 | / | / | / | -2% | / | /
COc1ccc(C(=O)COC(=O)COc2cccc3c2OC(C)(C)C3)c(OC)c1 | -13 | -6 | 0.0 | 1 | 1 | 2 | 1.4 | -5% | -1.0 | -0.6

(continued)
SMILES	Beta apoptosis	T cruzi inh	A1 inh	Calb FLC	Ecoli rRNA inh	Ecoli rRNA inh OD600	Ecoli rRNA inh RFP	Vif TR-FRET	AF4-AF9 inh	RanGTP-Impb inh
Cc1nc2cc(-c3ccc(Cl)cc3)nn2c(C)c1CCC(=O)NCc1ccco1	0	6	-0.2	-16	-7	4	-9.7	4%	6.4	-1.3
CCCCCC(=O)N/N=C/c1ccco1	-14	-28	0.5	-13	13	2	-0.8	-6%	0.8	0.2
CC(=O)N1CCC(N(CCN2CCOCC2)C(=S)Nc2cccc(C)c2C)CC1	-1	-17	0.1	-5	/	/	/	/	/	-0.3
CSc1ccc(CNC(=O)C2CCC(=O)N(CCc3cccc(F)c3)C2)cc1 (centres undefined)	-1	5	1.3	6	-10	-11	2.8	/	-9.7	-0.3
Cc1ccc2c(c1)sc(=NC(=O)C1CC1)n2C	1	-15	-1.9	37	-2	-4	-2.8	3%	-1.7	-0.7
CCOC(=O)c1cncc(C#CCO)c1	-7	-13	0.2	-3	10	16	0.5	4%	-3.6	-0.1
CNc1csc(C)c(C)c1=O	1	-5	0.6	?	/	/	/	28%	/	1.9
CCOC(=O)C1CCCN(C(=O)c2cc(-c3ccc(F)cc3)nc3ccccc23)C1 (centres undefined)	-11	19	-1.4	53	-21	-34	-3.9	-3%	-2.4	?
CC1(C)CC(=O)C=C(Nc2ccc(S(N)(=O)=O)cc2)C1	3	1	0.1	9	/	/	/	5%	/	22*
O=C(CCNC(=O)c1ccccc1)Nc1cccnc1	-4	-8	-0.4	-4	4	7	-5.1	14%	-0.4	-5.6
COc1ccc(/C=C(\C#N)C(=O)OC2CCOC2=O)cc1 (centres undefined)	11	-3	-0.4	16	7	5	3.3	20%	0.5	0.3
O=C(CCNC(=O)c1ccccc1Cl)NN1C(=O)NC2(CCCCC2)C1=O	/	-5	-0.1	-2	11	8	-4.6	3%	-12	0.0
OCC[C@H]1C[C@H](O)[C@@H](O)[C@@]2(CCCc3ccccc3O2)O1	-1	/	-0.1	/	8	14	0.5	/	1.0	/
Cc1cc(C)nc(NC(=O)Nc2ccc(F)cc2F)n1	4	9	-0.2	21	3	3	-1.9	/	-14	-1.7
CCOC(=O)c1ccc(NC(=S)NCCc2ccc(F)cc2)cc1	-3	-26	-0.5	13	-59	-79	-20	1%	0.9	0.3
COc1ccc(C2(C(=O)Nc3ccc(C(=O)N4CCOCC4)cc3)CCOCC2)cc1	-5	-13	-0.6	-1	/	/	/	-2%	/	3.5
Cc1noc(NS(=O)(=O)c2ccc(NC(=O)c3ccc(N4C(=O)c5ccccc5C4=O)cc3)cc2)c1C	-11	-6	-0.1	2	9	4	-0.7	22%	-0.5	4.4
O=[N+]([O-])c1ccc(NNC(=S)Nc2ccc(F)cc2)cc1	12	8	-1.7	-15	/	/	/	9%	/	-0.7
O=C(O)C1CSC2(c3ccc4c(c3)OCCO4)CCC(=O)N12 (centres undefined)	5	3	-0.1	-4	/	/	/	-3%	/	-1.0
